Assay outcomes as filed in PubChem BioAssay.
HCMV UL50-53 inh: inhibitors of HCMV UL50-UL53 interaction, biochemical, HTRF | AID 1918969, 2023 | 0.15% of 190,000 active | HCMV UL50-UL53 nuclear egress complex (human cytomegalovirus) | inhibition, % (test concentration not listed) | normalized percent inhibition;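 active = both replicates at 50% or more, plus weaker picks with an unusually low signal ratio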;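 also: stock transfer was 100 nL into about 20 µL; 0% = negative control wells and 100% = wells with untagged competitor protein; inactives centre near -12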
The depositor's hits bear a star; & = joins results of further samples.

SMILES	HCMV UL50-53 inh
Cc1ccccc1-n1c(=O)c2ccccc2n2nnnc12	-9.4
O=C(O)C(S)=Cc1c[nH]c2ccc(F)cc12	-41.4
CC1=C(C(N)=O)C(c2ccccc2F)n2ncnc2N1 (configuration not stated)	17.0
Cc1sc2nc(SCC(=O)NC3CCCCC3)nc(N)c2c1C	-2.1
COC(=O)C1=C(NC(=O)/C=C/c2ccccc2)CCS1	4.9&-14.6
CC(=O)n1c2ccccc2c2ccccc21	-9.6
CCSc1nnc(NC(=O)C(C)C)s1	-13.4
COc1ccc(S(=O)(=O)N2CCN(C/C=C/c3ccccc3)CC2)cc1C	-3.2
C=CC(=O)Nc1cccc(Oc2ccnc3[nH]ccc23)c1	33.4*
Cc1ccc(-c2nc(S(=O)(=O)c3ccc(C)cc3)c(N(C)C)o2)cc1	-26.1
O=C(COc1cccc2c1CCN(Cc1cccnc1)C2=O)Nc1ccccc1	-4.9
C=CCn1c(=NC(=O)c2cccs2)sc2cc(S(N)(=O)=O)ccc21	-5.1
O=C(NCC(O)CO)c1c(I)c(C(=O)NCC(O)CO)c(I)c(N(CCO)C(=O)CO)c1I (configuration not stated)	0.8
Cc1nc2ccccc2n1CC(O)COc1ccccc1 (configuration not stated)	-5.4
O=C1CC(c2cccc(F)c2)Sc2nc3ccccc3n21 (configuration not stated)	-9.8
CSC1=NC(=O)/C(=C\c2cccc3ccccc23)S1	-12.4
CSC1=NCCN1S(=O)(=O)c1ccc(NC(C)=O)cc1	-1.6
C=CC(=O)N1CCN(C(=O)C=C)CC1	-4.2
CC(=O)Nc1ccc(OC(C)=O)cc1	-21.5
CCn1cc(-c2cc(C(=O)N3CCN(C)C(=O)C3C)c3ccc(C)cc3n2)cn1 (configuration not stated)	-11.5
Cc1cccc(-n2nc3c(c2NC(=O)/C=C\c2ccco2)CSC3)c1C	-1.7
CC1CCCN(C(=O)CSc2nnc(-c3ccc(Cl)s3)o2)C1 (configuration not stated)	1.8
CC(C)c1cc(C(C)C)c(CC(=O)NS(=O)(=O)Oc2c(C(C)C)cccc2C(C)C)c(C(C)C)c1	-75.9
CC(=O)NCCC1CCN(C(=O)C(C)Oc2cc(C)c(Cl)c(C)c2)CC1 (configuration not stated)	-21.5
CCCCCCCCCCCCCCCCOC[C@H](COP(=O)([O-])OCC[N+](C)(C)C)SC(C)=O	-10.9&-10.9
CC(C)(C)c1ccc(C(=O)N2CCCCCC2=O)cc1	-10.9
Cc1ccccc1Nc1ncnc2c1cnn2-c1ccccc1	-10.7
CCCCn1c(CCNC(=O)C(C)(C)C)nc2ccccc21	-17.9
COC(=O)c1ccc2nc(-c3cccc(N)c3)cn2c1	-18.2
CN(C)CCCCCCOc1ccc(-n2ccnc2)cc1	-16.5&-16.5&-19.5&-19.5

Looked up one by one from the list above, six records:
SMILES	HCMV UL50-53 inh
CC(=O)NCCC1CCN(C(=O)C(C)Oc2cc(C)c(Cl)c(C)c2)CC1 (configuration not stated)	-21.5
CC1CCCN(C(=O)CSc2nnc(-c3ccc(Cl)s3)o2)C1 (configuration not stated)	1.8
COC(=O)c1ccc2nc(-c3cccc(N)c3)cn2c1	-18.2
CC(C)(C)c1ccc(C(=O)N2CCCCCC2=O)cc1	-10.9
Cc1cccc(-n2nc3c(c2NC(=O)/C=C\c2ccco2)CSC3)c1C	-1.7
Cc1ccccc1Nc1ncnc2c1cnn2-c1ccccc1	-10.7

Going on with the list:
SMILES	HCMV UL50-53 inh
Cc1nn(C)cc1-c1ccnc(N2CCCN(c3ccccc3)CC2)n1	-9.0&-9.0
COc1ccc(-n2nc3c(c2NC(=O)c2ccco2)CSC3)cc1	3.1
CC(=O)Nc1sc(Cc2ccc3c(c2)OCO3)c(C)c1C(N)=O	-25.8
Cc1nc(-c2ccc(NS(C)(=O)=O)cc2)cs1	-10.0
CC(=O)N1CCc2c(sc(NC(=O)/C=C/c3ccccc3)c2C(N)=O)C1	-64.7
C=CCc1ccc(OCC(O)CN2CCN(c3ccccc3)CC2)c(OC)c1 (configuration not stated)	-6.2
Cn1cc(-c2cc(C(=O)N3CCc4ccccc4C3)c3cc(F)ccc3n2)cn1	-6.3
OC(CN1CCNCC1)Cn1c2ccccc2c2cc(Br)ccc21 (configuration not stated)	-6.6
Cc1ccc2c(CC(=O)O)cc(=O)oc2c1	-7.7
OCC1CCCN(C2CCN(c3ncnc4sccc34)CC2)C1 (configuration not stated)	-10.0

Some of the entries above in another layout.
mol | HCMV UL50-53 inh
Cc1cccc(-n2nc3c(c2NC(=O)/C=C\c2ccco2)CSC3)c1C | -1.7
CC1CCCN(C(=O)CSc2nnc(-c3ccc(Cl)s3)o2)C1 (configuration not stated) | 1.8
CC(C)c1cc(C(C)C)c(CC(=O)NS(=O)(=O)Oc2c(C(C)C)cccc2C(C)C)c(C(C)C)c1 | -75.9
CC(=O)NCCC1CCN(C(=O)C(C)Oc2cc(C)c(Cl)c(C)c2)CC1 (configuration not stated) | -21.5
CCCCCCCCCCCCCCCCOC[C@H](COP(=O)([O-])OCC[N+](C)(C)C)SC(C)=O | -10.9&-10.9

Continued.
SMILES	HCMV UL50-53 inh
COc1cc2ncn(-c3cc(OCc4ccc(S(C)(=O)=O)cc4)c(C(N)=O)s3)c2cc1OC	-21.3
COc1ccc(-c2oc3cc(OC)ccc3c2C(=O)c2ccc(C#N)cc2)cc1	0.4
O=C(COc1ccc2c3c(c(=O)oc2c1)CCC3)OCc1ccccc1	-3.4
CN1CCN(Cc2ccc(-c3nc(-c4cccnc4)cc(=O)[nH]3)cc2)CC1	-14.3&-14.3
O=C(Nc1ccccc1-c1nc2ccccc2[nH]1)C1CC1	-6.8
NC(=O)CSc1nc2c(c(=O)n1-c1ccccc1)SCC2	-56.5
CCCCC(C)(O)C/C=C/[C@H]1[C@H](O)CC(=O)[C@@H]1CCCCCCC(=O)O (some centres not stated)	-17.8&-17.8&-14.5
O=C(O)CNC(=O)c1cccc(O)c1	-17.3
O=C(CN1C(=O)CC(c2ccccc2)Sc2ccccc21)NCc1ccccc1 (configuration not stated)	-5.9
COc1ccc(-n2ccnc2SCC(=O)Nc2ccccc2)cc1	-16.0
Cn1c(=NC(=O)c2nc3ccccc3s2)sc2cc(Cl)ccc21	1.3
Cc1cccc(-n2nnnc2-c2ccc3ccccc3n2)c1	-11.1
CC12CCC(C(=O)N3CCCCC3)(CC1=O)C2(C)C (configuration not stated)	-14.2
CC(O)CCc1sc2ccccc2[n+]1C (configuration not stated)	-17.7
CN1C(=O)CCC1(O)c1ccccc1 (configuration not stated)	-2.2
Cc1cc(N)n(-c2ncnc3sc4c(c23)CCC4)n1	-7.6
CCOC(=O)N1CCN(C(=O)CSc2c(-c3ccccc3)[nH]c3ccccc23)CC1	10.5
COc1cccc2c(=O)n(CC(N)=O)ccc12	-0.5
O=S(=O)(/C=C/c1ccccc1)N1CCN(c2ccccn2)CC1	4.2
CCCSc1nnc(NC(=O)Cc2ccc(OC)cc2)s1	-1.2
O=c1[nH][nH]c2nnc(-c3c(-c4ccccc4)nn4ccccc34)cc12	-71.7
CC1Cc2cc(S(=O)(=O)CCC(=O)Nc3ccccc3)ccc2N1C(=O)C1CC1 (configuration not stated)	10.0
CC(C)(C)c1csc(NC(=O)c2ccc(C#N)cc2)n1	-29.4
CCCCCCCCCCCCC(O)C(=O)O (configuration not stated)	-9.9&-9.9&-10.4
CN(C)c1ccc(C(=O)N=c2sc3cc(Cl)ccc3n2C)cc1	-14.7
CCCCCCCC/C=C\CCCCCCCC(=O)NCCS(=O)(=O)O	-17.1&-17.1
CCN(CC)c1ccc2nc(C)c(=O)oc2c1	-4.8
CC1CN(C(=O)c2ccc3ncsc3c2)CC(C)O1 (configuration not stated)	1.7
CCC(=O)NCCCc1nc2ccccc2[nH]1	-5.4
COc1ccc2cc(Br)ccc2c1CCl	-53.8
Cc1ccc(/C=C/C(=O)Nc2ccccc2)o1	-34.8
CCC(Sc1ccccc1)C(=O)Nc1nnc(-c2ccc(OC)cc2OC)s1 (configuration not stated)	-16.5
Nc1nccc(-c2ccc(Oc3ccc(Cl)cc3)cc2Cl)n1	-10.1
CCCCCCOC(=O)[C@@]1(O)CC2OC1(C)n1c3ccccc3c3c4c(c5c6ccccc6n2c5c31)C(=O)NC4 (some centres not stated)	-7.1
C1=C(CCNc2ncnc3c2cnn3-c2ccccc2)CCCC1	-15.7
OC(CCN1CCN(C(c2ccccc2)c2ccccc2)CC1)C(F)(F)C(F)(F)F (configuration not stated)	-4.2
O=C(NCc1ccccc1)c1ccc(-c2nc3ccccc3s2)s1	-9.1
COC(=O)c1ccc(OCC(O)CNC(C)(C)C)cc1 (configuration not stated)	2.6
Cn1c(Cl)cnc1C1CC(=O)c2cc(Cl)ccc2O1 (configuration not stated)	-21.5
CCc1noc(CN(C(=O)c2ccccc2-n2cccn2)C(C)C)n1	-18.8

Structural class, the compounds so far containing a cyano group.
SMILES	HCMV UL50-53 inh
COc1ccc(-c2oc3cc(OC)ccc3c2C(=O)c2ccc(C#N)cc2)cc1	0.4
CC(C)(C)c1csc(NC(=O)c2ccc(C#N)cc2)n1	-29.4

Next section:
SMILES	HCMV UL50-53 inh
CCN(CC)CC(O)COc1ccc(NC(C)=O)cc1 (configuration not stated)	-13.9
CCCCCCCCCCCCCCCCOC[C@H](COP(=O)([O-])OCC[N+](C)(C)C)OC(=O)CCCCCCCC(=O)O	2.8&2.8
Cc1ccc(NC(=O)CSC2=C(C#N)C3(CCCCC3)C(C#N)C(=O)N2)c(C)c1 (configuration not stated)	-8.8
CN1CCN(C(=O)CN2C(=O)S/C(=C\c3ccccc3F)C2=O)CC1	-45.2
CC(=O)Oc1cc(OC(C)=O)c2c(-c3ccccc3)cc(=O)oc2c1	-12.2
CCn1c(SCC(=O)c2ccccc2)nnc1-c1ccncc1	-4.7
CC1=C(C)CS(=Nc2ccccc2)N(S(=O)(=O)c2ccccc2)C1 (configuration not stated)	-22.5
CCOC(=O)CSc1nnc(NC(=O)C23CC4CC(CC(C4)C2)C3)s1	-9.7
CC(C)Oc1ccc(C(=O)Nc2sccc2C#N)cc1	-6.0
CCOc1cc2ncc(C#N)c(Nc3ccc(F)c(Cl)c3)c2cc1NC(=O)C=CCN(C)C	0.6
Cc1cc(=O)cc(C)n1-c1ccc(O)cc1	2.3
CN1CCN(c2ncnc3sccc23)CC1=O	-13.4&-13.4
C=C(C)C(=O)Oc1cccc(N2C(=O)C3C4C=CC(C4)C3C2=O)c1 (configuration not stated)	26.2
CCOC(=O)Cc1csc(Nc2ccc(Cl)cc2)n1	-19.6
Cc1ccc(NC(=O)CN(C)c2cc3c(cc2Cl)NC(=O)CO3)cc1F	-5.8
NCC12CC3CC(CC(C3)C1)C2	-4.3
N/C(=N\C(=O)N1CCOCC1)c1ccccc1	-4.6
COC(=O)C1=CC[C@@]23CC[C@@H]([C@@](C)(/C=C/C=C(\C)C(=O)O)OC2=O)[C@@]3(OC(C)=O)CC1	-7.7&-7.7
Cn1c(=O)c2c(nc(CN3CCN(Cc4ccccc4)CC3)n2CCCc2ccccc2)n(C)c1=O	5.1
Brc1ccc(-c2nn3c(Cc4ccccc4)nnc3s2)o1	-12.5
CC(C)(C)NS(=O)(=O)c1cncc(-c2cc(F)c3nc(N)nn3c2)c1	-9.4
Cc1c(C(=O)N2CCSCC2)c(-c2ccccc2)nn1-c1ccccc1	-1.0
CN(Cc1ccco1)C(=O)c1nn(C)c2c1CC(N1CCOc3ccc(Cl)cc3C1)CC2 (configuration not stated)	-8.7
Cc1sc(NC(=O)c2ccc3ncsc3c2)nc1-c1ccccc1	12.3
O=C(/C=C/c1ccccc1)NCCSc1c[nH]c2ccccc12	-9.6
COc1cccc2c(C)cc(N3CCC[C@H]3CO)nc12	3.2
O=C(Nc1nccs1)c1cn(-c2ccccc2)nc1-c1ccccc1	4.5
Clc1cnccn1	-24.4
CCCCC[C@H](O)/C=C/[C@H]1C=CC(=O)[C@@H]1CCCCCCC(=O)O	23.3&23.3&-10.2
COC(=O)COc1ccc2c3c(c(=O)oc2c1)CCC3	3.5
COc1ccc(COc2cc3oc(=O)c4cc(C(C)O)ccc4c3cc2OC)cc1 (configuration not stated)	-5.0
COc1ccc(Nc2oc(-c3ccccc3Cl)nc2C#N)cc1	1.9
O=C(CSC1=NCCS1)Nc1nccs1	-12.0
CN(C)CCNc1nc2ccccc2[nH]1	-2.2
O=C1NC(=Nc2cccnc2)S/C1=C/c1ccc(O)cc1	-7.7
N#CC1=C(N=Cc2cc(Cl)cc(Cl)c2O)CCC1	0.7
O=C(Oc1cccc2cccnc12)c1cccc(Cl)c1	-31.9
O=C(C1CCCCCC1)N1CCC(n2cc(-c3ccccn3)nn2)CC1	-12.0
Cc1cc(Br)cnc1N=CNO	16.2
NS(=O)(=O)c1ccc(NC(=O)COc2cccc3ccccc23)cc1	-4.8
Cc1cc(C)c(NC(=O)CN2C(=O)CSCC2=O)c(C)c1	2.0
Cn1cccc1Cc1nnc(SCC(=O)NCc2ccccc2)n1C	-1.8
CC(C)(C)c1ccn(CC(=O)c2ccc(Cl)cc2)n1	-8.9
CC1(C)CCN(C(=O)c2cc(-c3cnc(C4CC4)nc3)nc3ccc(F)cc23)C1	-41.8
CCCc1cc(C(=O)N2CCCC(Cn3cc(CC(C)C)nn3)C2)n[nH]1 (configuration not stated)	-5.8
CCOc1ccc(CC2SC(N)=NC2=O)cc1 (configuration not stated)	6.9
CCCCCCCCCCCCCCCC(=O)OC[C@H](COP(=O)([O-])OCC[N+](C)(C)C)OC(=O)CCCCCCCC(=O)/C=C/C(=O)O	-19.6&-19.6
C=CC[N+]1(C2C[C@H]3[C@@H]4CC[C@H]5CC(O)C(N6CCOCC6)C[C@]5(C)[C@@H]4CC[C@]3(C)C2OC(C)=O)CCCC1 (some centres not stated)	-13.0
O=C(O)CSc1nnc(-c2ccco2)n1Cc1ccccc1	-13.0
CN(C)c1ccc(P(=O)(OCc2ccccc2)C(O)c2ccccc2)cc1 (configuration not stated)	-14.4
(further entries)
SMILES	HCMV UL50-53 inh
O=C(/C=C/c1cccs1)OCC(=O)c1ccccc1	-12.5
CO/N=C(/C(=O)NC1C(=O)N2C(C(=O)O)=C(CSc3nnnn3C)CSC12)c1csc(N)n1 (configuration not stated)	-42.3
COC1=C2CC(C)CC(OC)C(O)C(C)C=C(C)C(OC(N)=O)C(OC)C=CC=C(C)C(=O)NC(=CC1=O)C2=O (configuration not stated)	-76.4
CCOc1cccc2cc(-c3nc4ccccc4[nH]3)c(=O)oc12	-14.3

These rows are one share of the data, so the mix of outcomes need not match the whole.
